A1 apoptosis 2: A1 inhibition read as caspase activation. caspase activation, % (concentration not given with the values). MEF A1-2A-BIM cells, caspase-Glo luminescence, 3 h; percent of clofoctol response, DMSO zero. 24,000 tested, under 10 active; in the data active means caspase activation above about 5.9%;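 further: wells of about 30 µL received 50 nL stock; the first replicate is given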
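system = A1-2A-BIM-expressing MEF cells | quantity = 2500 MEF cells/well | dosing = 50 nL compound per well, pinned | schedule = overnight cell settling, then 3 h compound exposure, 37 °C | signal = luminescence from DEVD-luciferin Caspase-Glo reagent, 1:1 in 50 mM HEPES, 1 h RT | read-out = Caspase-3/7 activation, seen as rise in luminescence signal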
An asterisk follows results filed as active.

| smiles | A1 apoptosis 2 |
| --- | --- |
| C[C@H](CO)N1C[C@H](C)[C@H](CN(C)Cc2ccc(Oc3ccccc3)cc2)Oc2c(NC(=O)CCCCCC(=O)Nc3ccccc3N)cccc2C1=O | 0.5 |
| COc1ccc(CN(C)C[C@@H]2Oc3ccc(NS(=O)(=O)c4ccc(OC)cc4)cc3C(=O)N([C@H](C)CO)C[C@H]2C)cc1 | 0.8 |
| C[C@H](CO)N1C[C@H](C)[C@H](CN(C)Cc2ccc(C(=O)O)cc2)Oc2c(NS(=O)(=O)c3ccc(Cl)cc3)cccc2C1=O | 0.6 |
| C[C@@H]1CN([C@@H](C)CO)C(=O)c2cccc(NC(=O)CCCCCC(=O)Nc3ccccc3N)c2O[C@H]1CN(C)Cc1ccncc1 | 0.4 |
| Cc1noc(C)c1S(=O)(=O)Nc1ccc2c(c1)CC(=O)N([C@H](C)CO)C[C@@H](C)[C@@H](CN(C)C(=O)Nc1ccccc1)O2 | 0.2 |
| COc1ccc(NC(=O)Nc2ccc3c(c2)CC(=O)N([C@@H](C)CO)C[C@H](C)[C@H](CN(C)Cc2ccc(C(=O)Nc4ccccc4N)cc2)O3)cc1 | -1.1 |
| C[C@@H]1CN([C@@H](C)CO)C(=O)c2cccc(NS(=O)(=O)c3ccc(F)cc3)c2O[C@@H]1CN(C)S(=O)(=O)c1cn(C)cn1 | -1.5 |
| C[C@H](CO)N1C[C@H](C)[C@H](CN(C)S(=O)(=O)c2ccccc2)Oc2ccc(NC(=O)CCC(F)(F)F)cc2CC1=O | -0.5 |
| Cc1noc(C)c1S(=O)(=O)N(C)C[C@@H]1OCCCC[C@@H](C)Oc2ccc(NC(=O)C3CCCCC3)cc2C(=O)N([C@@H](C)CO)C[C@@H]1C | 0.1 |
| CC(C)NC(=O)Nc1ccc2c(c1)CC(=O)N([C@H](C)CO)C[C@H](C)[C@H](CN(C)S(=O)(=O)c1ccc(F)cc1)O2 | -0.2 |
| C[C@@H]1CN([C@H](C)CO)C(=O)c2cc(NS(C)(=O)=O)ccc2O[C@@H](C)CCCCO[C@@H]1CN(C)Cc1ccc(Cl)c(Cl)c1 | -0.5 |
| CNC[C@@H]1Oc2ccc(NC(=O)c3ccncc3)cc2CC(=O)N([C@H](C)CO)C[C@@H]1C | -0.3 |
| COc1ccc(S(=O)(=O)Nc2ccc3c(c2)C(=O)N([C@H](C)CO)C[C@@H](C)[C@@H](CN(C)C(=O)Nc2c(C)noc2C)O3)cc1 | 1.6 |
| C[C@@H]1CCCCO[C@H](CN(C)S(=O)(=O)c2cn(C)cn2)[C@H](C)CN([C@@H](C)CO)C(=O)c2cc(NC(=O)Nc3cccc4ccccc34)ccc2O1 | 0.0 |
| COc1ccc(NC(=O)Nc2ccc3c(c2)C(=O)N([C@H](C)CO)C[C@@H](C)[C@H](CN(C)Cc2ccc(C(F)(F)F)cc2)OCCCC[C@H](C)O3)cc1 | -0.6 |

Additional records
| smiles | A1 apoptosis 2 |
| --- | --- |
| COc1ccc(NC(=O)Nc2ccc3c(c2)C(=O)N([C@@H](C)CO)C[C@H](C)[C@H](CN(C)S(=O)(=O)c2ccc(OC)cc2)O3)cc1 | -0.6 |
| Cc1ccc(S(=O)(=O)N(C)C[C@@H]2Oc3c(NC(=O)Nc4ccc(F)cc4)cccc3C(=O)N([C@H](C)CO)C[C@@H]2C)cc1 | 0.4 |
| C[C@@H]1CN([C@@H](C)CO)C(=O)c2cc(NC(=O)Nc3ccc(C(F)(F)F)cc3)ccc2O[C@@H]1CN(C)S(=O)(=O)c1ccc(F)cc1 | -0.8 |
| C[C@@H]1CN([C@@H](C)CO)C(=O)Cc2cc(NC(=O)Nc3ccc(F)cc3)ccc2O[C@@H]1CN(C)S(=O)(=O)c1ccc(F)cc1 | 0.6 |
| C[C@H](CO)N1C[C@H](C)[C@@H](CN(C)Cc2ccccc2)Oc2ccc(NC(=O)c3ccncc3)cc2CC1=O | -0.2 |
| C[C@H]1CN([C@@H](C)CO)C(=O)c2cccc(NC(=O)Nc3ccc(C(F)(F)F)cc3)c2O[C@@H]1CN(C)S(=O)(=O)c1cccs1 | 1.0 |
| C[C@@H]1CCCCO[C@@H](CN(C)S(C)(=O)=O)[C@H](C)CN([C@@H](C)CO)C(=O)c2cc(NC(=O)Nc3cccc4ccccc34)ccc2O1 | -0.3 |
| COc1ccc(NC(=O)Nc2cccc3c2O[C@@H](CN(C)C(=O)Nc2ccc4c(c2)OCO4)[C@H](C)CN([C@H](C)CO)C3=O)cc1 | -0.9 |
| CCCC(O)C#Cc1cnc2c(c1)C(=O)N([C@H](C)CO)C[C@H](C)[C@H](CN(C)C(=O)Nc1ccccc1)O2 (some centres not stated) | 0.1 |
| Cc1ccc(S(=O)(=O)Nc2ccc3c(c2)C(=O)N([C@H](C)CO)C[C@H](C)[C@@H](CN(C)C(=O)NC2CCCCC2)O3)cc1 | 0.4 |
| Cc1noc(C)c1NC(=O)Nc1ccc2c(c1)C(=O)N([C@@H](C)CO)C[C@H](C)[C@@H](CN(C)S(=O)(=O)c1cccs1)OCCCC[C@@H](C)O2 | 0.8 |
| C[C@H]1CN([C@@H](C)CO)C(=O)CCCn2cc(nn2)CO[C@@H]1CN(C)C(=O)Nc1ccccc1 | 0.2 |
| C[C@@H]1CCCCO[C@H](CN(C)C(=O)Nc2ccccc2)[C@H](C)CN([C@H](C)CO)C(=O)c2cc(NC(=O)Nc3ccc(C(F)(F)F)cc3)ccc2O1 | -1.4 |
| C[C@@H]1CN([C@@H](C)CO)C(=O)Cc2cc(NS(=O)(=O)c3ccccc3)ccc2O[C@H]1CN(C)S(=O)(=O)c1ccccc1 | 0.6 |
| Cc1noc(C)c1NC(=O)Nc1ccc2c(c1)CC(=O)N([C@@H](C)CO)C[C@H](C)[C@H](CN(C)S(=O)(=O)c1ccccc1)O2 | 1.8 |

Next part.
| smiles | A1 apoptosis 2 |
| --- | --- |
| C[C@@H]1CN([C@@H](C)CO)C(=O)c2cc(NC(=O)Nc3cccc4ccccc34)ccc2O[C@@H](C)CCCCO[C@H]1CN(C)CC1CC1 | -0.1 |
| COc1ccc(NC(=O)Nc2cccc3c2O[C@H](CN(C)S(C)(=O)=O)[C@@H](C)CN([C@H](C)CO)C3=O)cc1 | 0.4 |
| C[C@@H]1CCCCO[C@@H](CN(C)C(=O)Nc2ccccc2)[C@H](C)CN([C@@H](C)CO)C(=O)c2cc(NS(=O)(=O)c3cccs3)ccc2O1 | 0.2 |
| CC(C)NC(=O)Nc1ccc2c(c1)CC(=O)N([C@H](C)CO)C[C@H](C)[C@@H](CN(C)C(=O)NC(C)C)O2 | -0.4 |
| C[C@@H]1CN([C@H](C)CO)C(=O)Cc2cc(NC(=O)Nc3ccccc3)ccc2O[C@@H]1CN(C)C(=O)Nc1cccc2ccccc12 | -0.2 |
| COc1ccc(CN(C)C[C@H]2Oc3ccc(NC(=O)Cc4ccccc4)cc3CC(=O)N([C@H](C)CO)C[C@@H]2C)cc1 | 0.5 |
| O=C(CCCCCC(=O)N/N=C/c1ccc(Br)s1)NO | 0.2 |
| C[C@@H]1CN([C@H](C)CO)C(=O)c2cccc(NC(=O)C3CC3)c2O[C@H]1CN(C)Cc1ccncc1 | 0.5 |
| C[C@H]1CN([C@@H](C)CO)C(=O)c2cc(NS(=O)(=O)c3cccs3)ccc2O[C@H]1CN(C)Cc1ccc(Oc2ccccc2)cc1 | 0.0 |
| COC(=O)CCCCCCC(=O)N/N=C/c1cc(Br)cc(OC)c1O | 0.4 |
| C[C@@H]1CN([C@H](C)CO)C(=O)c2cc(NC(=O)C3CC3)ccc2O[C@@H]1CN(C)CC1CCCCC1 | 2.0 |
| C[C@@H]1CN([C@@H](C)CO)C(=O)c2cccc(NS(=O)(=O)c3ccccc3)c2O[C@H]1CN(C)C(=O)Nc1ccc(F)cc1 | 0.6 |
| C[C@@H]1CN([C@H](C)CO)C(=O)c2cccc(NC(=O)CCCCCC(=O)Nc3ccccc3N)c2O[C@H]1CN(C)Cc1ccccc1 | -0.6 |
| C[C@@H]1CN([C@H](C)CO)C(=O)c2cc(NC(=O)Cn3cnnn3)ccc2O[C@@H]1CN(C)C(=O)Nc1ccc(C(F)(F)F)cc1 | 0.0 |
| C[C@@H]1CN([C@H](C)CO)C(=O)Cc2cc(NS(=O)(=O)c3cn(C)cn3)ccc2O[C@H]1CN(C)Cc1ccc(C(=O)Nc2ccccc2N)cc1 | -0.6 |

More compounds
| smiles | A1 apoptosis 2 |
| --- | --- |
| C[C@@H]1CN([C@H](C)CO)C(=O)CCCn2nncc2CO[C@@H]1CN(C)C(=O)Cc1ccccc1 | -0.3 |
| COc1ccc(S(=O)(=O)Nc2cccc3c2O[C@@H](CN(C)S(=O)(=O)c2cn(C)cn2)[C@@H](C)CN([C@@H](C)CO)C3=O)cc1 | -0.9 |
| COC(=O)[C@@]1(Cc2ccccc2)N=C(c2ccc(OCCCO)cc2)O[C@H]1c1ccccc1CN=[N+]=[N-] | -2.0 |
| C[C@@H]1CN([C@@H](C)CO)C(=O)c2cc(NS(=O)(=O)c3cn(C)cn3)ccc2O[C@@H](C)CCCCO[C@H]1CN(C)C(=O)CCCN(C)C | -0.5 |
| Cc1ccc(S(=O)(=O)N(C)C[C@@H]2Oc3ccc(NC(=O)Nc4cccc5ccccc45)cc3C(=O)N([C@@H](C)CO)C[C@@H]2C)cc1 | -0.3 |
| C[C@H]1CN([C@@H](C)CO)C(=O)c2cc(NC(=O)NC3CCCCC3)ccc2O[C@H]1CN(C)S(=O)(=O)c1cn(C)cn1 | 1.1 |
| C[C@@H]1CN([C@H](C)CO)C(=O)c2cc(NS(=O)(=O)c3ccc(F)cc3)ccc2O[C@@H](C)CCCCO[C@H]1CN(C)Cc1ccc(C(F)(F)F)cc1 | 2.4 |
| O=C(CCCCCCC(=O)Nc1ccccc1O)N/N=C/c1ccco1 | -0.1 |
| C[C@@H]1CN([C@@H](C)CO)C(=O)c2cccc(NC(=O)c3ccc(-c4nccs4)cc3)c2O[C@@H]1CN(C)S(=O)(=O)c1cccs1 | 0.4 |
| COc1cc(/C=N/NC(=O)c2cccc(C(=O)NO)c2)ccc1O | 0.2 |
| C[C@@H]1CCCCO[C@@H](CN(C)S(=O)(=O)c2cccs2)[C@H](C)CN([C@H](C)CO)C(=O)c2cc(N(C)C)ccc2O1 | 0.3 |
| C[C@H]1CCCCO[C@H](CN(C)C(=O)CCCN(C)C)[C@@H](C)CN([C@@H](C)CO)C(=O)c2cc(NC(=O)Nc3ccccc3)ccc2O1 | -0.8 |
| C[C@@H]1CN([C@H](C)CO)C(=O)c2cc(NC(=O)Nc3cccc4ccccc34)ccc2O[C@@H](C)CCCCO[C@@H]1CN(C)Cc1ccccc1 | 0.7 |
| COc1ccc(S(=O)(=O)N(C)C[C@H]2Oc3ccc(NC(=O)Nc4cccc5ccccc45)cc3CC(=O)N([C@H](C)CO)C[C@H]2C)cc1 | 0.2 |
| C[C@H](CO)N1C[C@H](C)[C@H](CN(C)C(=O)NC2CCCCC2)Oc2ccc(NC(=O)C3CC3)cc2CC1=O | 2.4 |

(further entries)
| smiles | A1 apoptosis 2 |
| --- | --- |
| O=C(NO)c1cccc(C(=O)N/N=C/c2c[nH]c3ccccc23)c1 | -1.0 |
| C[C@H]1CN([C@@H](C)CO)C(=O)c2cccc(NC(=O)c3cnccn3)c2O[C@H]1CN(C)S(=O)(=O)c1cccs1 | 1.8 |
| CNC[C@@H]1Oc2ccc(NC(=O)Cc3ccccc3)cc2CC(=O)N([C@H](C)CO)C[C@H]1C | -0.8 |
| COc1ccc(NCc2ccc(C(=O)Nc3ccccc3[N+](=O)[O-])cc2)cc1OC | -2.8 |
| Cc1ccc(S(=O)(=O)Nc2ccc3c(c2)C(=O)N([C@@H](C)CO)C[C@@H](C)[C@@H](CN(C)S(=O)(=O)c2ccc(Cl)cc2)OCCCC[C@H](C)O3)cc1 | 0.0 |
| Cc1noc(C)c1S(=O)(=O)Nc1ccc2c(c1)C(=O)N([C@H](C)CO)C[C@H](C)[C@@H](CN(C)C(=O)Nc1ccccc1)O2 | -0.8 |
| C[C@@H]1CCCCO[C@H](CN(C)C(=O)Nc2ccc(F)cc2)[C@@H](C)CN([C@H](C)CO)C(=O)c2cc(NC(=O)Nc3ccc(F)cc3)ccc2O1 | 0.2 |
| C[C@H]1CN([C@@H](C)CO)C(=O)c2cccc(NS(=O)(=O)c3cn(C)cn3)c2O[C@@H]1CN(C)Cc1ccc2c(c1)OCO2 | 1.2 |
| C[C@@H]1CN([C@H](C)CO)C(=O)c2cccc(NC(=O)C3CCCCC3)c2O[C@@H]1CN(C)Cc1ccc(C(=O)Nc2ccccc2N)cc1 | -0.7 |
| COc1ccc(S(=O)(=O)Nc2ccc3c(c2)C(=O)N([C@H](C)CO)C[C@@H](C)[C@@H](CN(C)CC2CCCCC2)OCCCC[C@H](C)O3)cc1 | 0.3 |
| C[C@@H]1CCCCO[C@@H](CN(C)C(=O)NC2CCCCC2)[C@H](C)CN([C@@H](C)CO)C(=O)c2cc(NS(=O)(=O)c3cn(C)cn3)ccc2O1 | 0.2 |

Assay outcomes deposited in PubChem BioAssay by Broad Institute.

These rows are one share of the data, so the mix of outcomes need not match the whole.
